Assay outcomes as filed in PubChem.
BJeLR lethal: MLPCN primary cell-based screen for lethality selective to Ras in HRASV12 cells | BJeLR (HRASV12) viability, CellTiter-Glo ATP luminescence, 48 h; reference of the scale not given here | inhibition, % (concentration not given with the values) | hit rate 0.17% among 300,000 | AID 1554, 2009;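 active means replicate mean above 50%; inconclusive means above 50% but judged a plate artefact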;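 further: 50 nL library stock added to about 25 µL; numbers are from one replicate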
PrP UTR inh: inhibition of PrP 5' UTR reporter expression | cell-based PrP 5' UTR mRNA reporter, plate reader | inhibition, % (concentration not given with the values) | hit rate 0.35% among 340,000 | AID 488862, 2010;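 active means every replicate at 50% or more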;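 further: 0 = median of the neutral control wells; tested in H4 reporter cells; numbers are from one replicate; inactives centre near -14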
ugtP null kill: growth inhibition of ugtP-null S. aureus, primary screen, RN4220 ugtP deletion, OD600; 16 h; some inactives read as strong as hits; growth inhibition, % (no concentration beside the values); hit rate 0.54% among 330,000; AID 1259309, 2017;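 active means z-score under -3 and OD600 up to 0.15 on both plates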;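 further: plate controls were untreated wells for no effect and antibiotic for full effect; wells of about 80 µL received 100 nL stock; the first replicate is given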
Bead autofluor: counter-screen for toxin protease inhibitors: compound fluorescence; hit rate 3.1% among 360,000; compound autofluorescence counterscreen, microsphere flow cytometry; stronger effect = higher value; fluorescence intensity (test concentration not listed); AID 624483;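 active means at least 3 SD above the mean of all compounds, about 16000 in these data; inconclusive means too few beads counted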;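 further: 100 nL of 1 mM stock went into each well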
RN4220 kill: growth inhibition of S. aureus RN4220, primary screen, OD600; 16 h; inhibition, % (test concentration not listed); hit rate 0.33% among 330,000; AID 1259311, 2017;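 active means z-score of -3 or lower and OD600 up to 0.18 on both plates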;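 further: plate controls were untreated cells for no effect and reference antibiotic for full effect; stock transfer was 100 nL into about 80 µL; one replicate is shown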
Mtb hypoxia inh: PubChem AID 1159583. M. tuberculosis hypoxia-regulated fluorescent reporter, fluorescence. fluorescence inhibition, % (no concentration beside the values). hit rate 0.1% among 300,000;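 active means 35 to 45% if threefold the growth effect, above 45% if 1.5-fold the growth effect; inactive means the rest, general growth blockers included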;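 further: wells of about 50 µL received 100 nL stock; 0% = vehicle wells and 100% = reference inhibitor wells; whole bacteria with a GFP reporter of the hypoxia response; strong numbers were not always called active; many hits fall short of the cut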
Mtb hypoxia inh growth: also measured in Mtb hypoxia inh; calls as there; growth inhibition, %; measured here: M. tuberculosis growth (absorbance);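 0% = vehicle and 100% = reference antibiotic; read after six days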
Starred values were filed as active, the others as inactive; ? = inconclusive; nt = no result given.

Results follow in this order: Mtb hypoxia inh | ugtP null kill | RN4220 kill | BJeLR lethal | PrP UTR inh | Mtb hypoxia inh growth | Bead autofluor
Cn1c(N)c(C(=O)CSc2nnc(-c3ccccc3F)n2N)c(=O)n(C)c1=O
→ -8 | 8 | 2.6 | 7 | 1 | 0 | 3929
C=CCNc1nc2c(c(=O)n(C)c(=O)n2C)n1Cc1ccc(F)cc1
→ 7 | 12 | 0.6 | 15 | -8 | 8 | 5950
O=C(Cc1ccccc1)N1CCN(CC2CC3C=CC2C3)CC1 (configuration not stated)
→ 19 | 1 | 1.4 | -3 | -8 | 14 | 5673
O=C(CNC(=S)N(CCCN1CCOCC1)Cc1cccs1)NCCN1CCOCC1
→ -2 | 2 | 1.5 | -1 | 8 | 7 | 7450
CCCn1c(NC(=O)C23CC4CC(CC(O)(C4)C2)C3)nc2ccccc21
→ 4 | 0 | 1.3 | 3 | 2 | 12 | 2641
Cc1cccc2cc(C=NNC(=O)c3ccccc3O)c(Cl)nc12
→ -7 | -6 | 20 | nt | nt | -2 | nt
O=C1c2cccnc2C(Nc2ccc(S(=O)(=O)N3CCCCC3)cc2)N1Cc1ccccc1 (configuration not stated)
→ 1 | -2 | 8.2 | -1 | 3 | 6 | 11133
O=C(O)c1ccc(COc2c(F)c(F)cc(F)c2F)cc1
→ 7 | 1 | 3.8 | 9 | -21 | -3 | ?
CC(C)COc1ccc(CNC(=S)Nc2ccccc2)cc1Cl
→ -5 | 2 | 8.0 | -4 | -19 | -4 | 3761
CCNC(=O)CC1C(=O)N(c2ccccc2)C(=O)N1Cc1ccc(OC)cc1 (configuration not stated)
→ 3 | 3 | 3.4 | -5 | -27 | 2 | 8260
O=C(CCNS(=O)(=O)c1ccc(Br)cc1)NCc1cccs1
→ -3 | 4 | -1.9 | 1 | 5 | 5 | 4318
CN(C)c1ccc(/C=C(\NC(=O)c2ccccc2)C(=O)NN=Cc2ccc(C(=O)O)cc2)cc1
→ 5 | 0 | 1.4 | nt | nt | 14 | nt
COc1cccc(-c2cc(C(F)(F)F)n3ncc(C(=O)NCC4CCCO4)c3n2)c1 (configuration not stated)
→ 10 | 0 | 0.8 | 1 | 8 | 13 | 3961
O=C(CCNC(=O)c1ccccc1Cl)N/N=C\c1ccc(O)cc1
→ nt | nt | nt | -1 | -11 | nt | 4724
CCCNC(=O)C(Cc1ccccc1)NS(=O)(=O)c1cccc2nsnc12 (configuration not stated)
→ 14 | 7 | 2.9 | -1 | -12 | 2 | 10176
O=C1CCNc2ccc(-c3ccccc3)cc21
→ -6 | -10 | 9.4 | 6 | -41 | 1 | 2588
O=C(CCCN1C(=O)c2cccc3cccc(c23)C1=O)Nc1ccon1
→ nt | nt | nt | -2 | -30 | nt | 4249
COP(=O)(CN(Cc1ccccc1)C(=S)Nc1c(C)cccc1C)OC
→ -10 | -3 | -3.2 | -7 | -37 | -2 | 4089
Cc1ccc(S(=O)(=O)N2CCN(c3nc(C)c4c(c3C#N)CC(C)(C)OC4)CC2)cc1
→ nt | 2 | -3.7 | nt | -3 | nt | 2747
COc1ccc(CNC(=O)CN2C(=O)CSc3ccc(S(=O)(=O)N4CCCCC4)cc32)cc1
→ -1 | -10 | 0.7 | 7 | 10 | 8 | 5609
CC(OC(=O)C12CC3CC(CC(O)(C3)C1)C2)C(N)=O (configuration not stated)
→ -4 | 12 | 5.5 | 3 | -23 | 0 | 4113
CCOC(=O)Cc1c(Cl)c2ccccc2[nH]c1=O
→ 9 | -4 | 2.1 | 5 | -17 | 16 | 2548
COc1ccc(-c2cc(=O)[nH]c(=O)[nH]2)cc1
→ 8 | 1 | 3.4 | 7 | -14 | 5 | 6137
CSc1nnc(-c2ccccc2)c(-c2ccccc2)n1
→ 6 | 6 | 47 | 0 | -8 | 4 | ?
CC#CCN1C(=O)N[C@@H](c2ccccc2)C(C(=O)OC)=C1C
→ nt | nt | nt | -6 | -15 | nt | 3798
COc1ccc(C2c3c(oc4ccccc4c3=O)C(=O)N2c2ccccn2)cc1 (configuration not stated)
→ nt | -4 | -5.5 | 5 | -35 | nt | 5809
Cc1cc(NN=Cc2ccc(N(C)C)cc2)c2ccccc2n1
→ 4 | 1 | 4.7 | nt | nt | 8 | nt
O=C(Nc1ccccc1)c1c2c(nc3ccccc13)CCCC2
→ -7 | 11 | 6.6 | -6 | -19 | 3 | 2274
COc1ccc2c([N+](=O)[O-])c(Cl)[nH]c2c1
→ 2 | 10 | 6.2 | -3 | -16 | 4 | 4850
COc1ccc(-n2c(=O)c3ccccc3c3ccccc3c2=O)cc1
→ nt | nt | nt | 1 | -10 | nt | 8910
C=CCNC(=S)NCCO
→ -5 | 3 | -0.4 | 1 | -32 | 1 | 3347
CC(=O)c1ccc(NS(=O)(=O)c2ccc(C(C)(C)C)cc2)cc1
→ 8 | 4 | 1.6 | 7 | -9 | 9 | 3299
CCCC(=O)Nc1cccc(Oc2nc(C)cc(C)c2C#N)c1
→ 3 | -7 | -6.1 | 0 | -11 | 10 | 2569
O=C(CSc1nc2ccc(Cl)cc2[nH]1)N1CCN(C(=O)c2ccco2)CC1
→ 7 | -12 | 4.7 | 1 | -6 | 9 | 2284
CCCCNC(=S)N(C)N=Cc1ccccc1F
→ -5 | 6 | 11 | nt | nt | 8 | nt
O=C(COc1ccccc1F)NNC(=O)c1cc(Br)ccc1Cl
→ 8 | 5 | 1.3 | nt | -13 | 9 | 3763
CC(C)n1nnnc1SCC(=O)NCCc1ccccc1
→ 14 | 11 | 5.4 | 0 | -18 | 8 | 3277
CCN(C1CCCCC1)S(=O)(=O)c1ccc(S(=O)(=O)NCCc2ccncc2)cc1
→ 5 | 0 | 3.6 | 11 | -20 | 2 | 9663
COC(=O)C1C(O)C(C)C(O)C(C)(O)/C=C\C=C(/C)C(=O)Nc2c(C)c(OC(C)=O)c3c(c2O)C(=O)C(C)=C2OCOC(=C23)/C(C)=C/C(C)(O)C(O)C(C)C1O (configuration not stated)
→ nt | nt | nt | 4 | -10 | nt | 3486
COC(=O)c1ccc(CN2CCN(Cc3ccccc3)C(CCO)C2)cc1 (configuration not stated)
→ 14 | 7 | 2.0 | 1 | -5 | 12 | 2423
O=c1[nH]cccc1-c1nc2ccccc2n1Cc1cccc(F)c1
→ 8 | 10 | 2.8 | -4 | -8 | 2 | 3506
CCCc1cc(C(=O)N2CCN(c3ccc(C(F)(F)F)cn3)CC2)sc1C
→ nt | nt | nt | -11 | -12 | nt | 5709
CCOc1ccc(N(C(=O)c2snc(C(N)=O)c2N)C(C(=O)NCC2CCCO2)c2c[nH]c3ccccc23)cc1 (configuration not stated)
→ -8 | 6 | 1.7 | -13 | -10 | 7 | 4996
COc1ccc([C@@H]2Sc3cc(OC)ccc3N(CCN(C(C)C)C(C)C)C(=O)[C@H]2OC(C)=O)cc1
→ -3 | 6 | 1.2 | 8 | -44 | -2 | 20962*
CN1CCN(S(=O)(=O)c2ccc(Nc3ccc(F)cc3)c([N+](=O)[O-])c2)CC1
→ 0 | 9 | 4.9 | 5 | 2 | -1 | ?
COc1ccc(/C=C(\NC(=O)c2ccco2)C(=O)NCc2ccco2)cc1
→ 4 | 3 | -2.7 | -4 | -14 | 1 | 3829
O=C(COC(=O)c1ccc(O)cc1)Nc1cc(C(F)(F)F)ccc1Cl
→ -14 | 3 | 4.3 | 0 | -18 | -6 | 4610
O=[N+]([O-])c1ccc(C=NNc2ccccn2)cc1
→ 4 | 9 | 0.4 | nt | nt | -3 | nt
C=CCN(c1ccccc1Cl)S(=O)(=O)c1cc(C(=O)N2CCCC2)ccc1Cl
→ 12 | 1 | 12 | -8 | -17 | 6 | 4395
O=C1CSC(c2ccc3c(c2)OCO3)N1c1ccc(Oc2ccccc2)cc1 (configuration not stated)
→ 15 | 79 | -7.0 | -9 | -9 | 2 | 6002
O=C(COC(=O)Cc1ccc(Cl)cc1)NC1CCCC1
→ 16 | 4 | 4.5 | nt | -2 | 9 | nt
O=C(NC(=S)N(CCc1ccccc1)CCc1ccccc1)c1ccco1
→ -5 | 4 | 26 | 6 | 3 | -2 | 7901
Cc1ccc(NC(=O)C2CCN(C(=O)NC3CCCCC3)CC2)cc1Cl
→ 8 | -9 | 1.5 | -14 | -1 | 12 | 3829
CC(=O)Nc1ccc(S(=O)(=O)NCc2ccccn2)cc1
→ 2 | 9 | 9.1 | 2 | -18 | 2 | 2586
CC(CC(=O)Nc1cccc(F)c1)=NNC(=O)c1ccncc1
→ nt | -1 | 3.4 | nt | nt | nt | nt
CCN(CC)c1cccc(OCC(=O)N(C)CCC#N)c1
→ 6 | 3 | 8.1 | 13 | -12 | 7 | 4916
CCCCC(=O)N1CCN(c2ccc(OC)cc2[N+](=O)[O-])CC1
→ 13 | 11 | 5.3 | -2 | -54 | 17 | 10061
O=C(Cn1nc(C(F)(F)F)cc1C1CC1)Nc1ccccc1F
→ 4 | -3 | 4.1 | 9 | -2 | 0 | 2386
O=C(Nc1ccc(F)cc1F)NC1CC(=O)N(Cc2ccccc2)C1 (configuration not stated)
→ 5 | 7 | 4.2 | 4 | -1 | 2 | 2594
CCOC(=O)N1CCC(NC(=O)CSCc2nc(-c3ccc(OC)c(OC)c3)oc2C)CC1
→ 5 | 5 | 1.9 | -3 | -12 | -2 | 20515*

The listing continues.
Results follow in this order: Mtb hypoxia inh | ugtP null kill | RN4220 kill | BJeLR lethal | PrP UTR inh | Mtb hypoxia inh growth | Bead autofluor
Cn1cc(CN2CCc3ccccc3C2)c2ccccc21
→ -3 | -6 | 7.2 | 3 | -58 | 0 | 21029*
O=C(c1ccc(NC2=NC3CS(=O)(=O)CC3S2)cc1)N1CCN(C(=O)c2ccco2)CC1 (configuration not stated)
→ 5 | 4 | -10 | nt | -23 | 3 | 4776
COc1ccc(C=Nn2cnc3c([nH]c4ccc(C)cc43)c2=O)cc1CN1CCCC1
→ 7 | -3 | -2.6 | nt | nt | 2 | nt
COc1cccc(NC(=O)CN(C)C(=O)CSc2nc3ccccc3s2)c1
→ -6 | -7 | 0.9 | 2 | 0 | 7 | ?
Clc1ccccc1C1NCc2ccccc2-n2cccc21 (configuration not stated)
→ -3 | 12 | 4.5 | 9 | -3 | 7 | 4344
CC(=O)c1cccc(CN(C)CC2CCCN(CCc3ccccc3C)C2)c1 (configuration not stated)
→ 3 | 13 | 5.3 | 4 | -19 | 4 | 4746
O=C(CN1C(=O)c2cccc([N+](=O)[O-])c2C1=O)N1CCN(c2ccc(F)cc2)CC1
→ nt | nt | nt | 4 | -22 | nt | 4248
CCOC(=O)N/N=C/c1ccc(F)cc1
→ nt | nt | nt | 6 | -18 | nt | 10974
CC(C)C(=O)Nc1cccc(NC(=O)c2cccnc2)c1
→ 11 | 4 | 2.8 | -3 | -4 | 6 | 4580
Cc1ccc(S(=O)(=O)N2CCN(S(=O)(=O)N3CCC(C)CC3)CC2)cc1C
→ 1 | 13 | 0.6 | -11 | -2 | 5 | 5754
Cc1nnc(NC(=O)CSc2nccn2Cc2ccccc2)s1
→ 11 | 2 | -0.7 | -3 | -9 | 1 | 4780
O=[N+]([O-])c1ccc(-c2ccc(S(=O)(=O)NCCN3CCCC3)cc2)cc1
→ 9 | -6 | 7.6 | 9 | 0 | 7 | 3838
CCCN(CCC)Cc1c(C(=O)NN=Cc2ccncc2)nnn1-c1nonc1N
→ 9 | 1 | 2.2 | nt | nt | 7 | nt
COCCNC(=O)CSc1ccccc1C(=O)NC1CCSc2ccccc21 (configuration not stated)
→ -4 | -1 | -4.9 | -9 | -6 | -4 | 5064
COc1ccc(Cl)cc1NS(=O)(=O)c1ccc(OC)c(OC)c1
→ 19 | 5 | 7.2 | -9 | -27 | 7 | 9803
O=C1CC(NN2CCCCC2)C(=O)N1c1ccccc1 (configuration not stated)
→ 0 | 3 | 6.3 | 5 | -21 | 15 | 4099
